Compound activity as filed in PubChem.
OX1R antag-1 – blocks the human orexin 1 receptor; actives 0.43% (n = 330,000); CHO/OX1R cells, Fluo-8 calcium fluorescence, orexin A; AID 434989; O43613; inhibition, % at 5 µM;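 active means inhibition above its plate's threshold, mean inhibition of all tested compounds on the plate plus 3 SD, cut at about 37% in these data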;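 further: 0% = orexin A challenge wells and 100% = SB-334867-A antagonist wells; not every result past the cut was called active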
OX1R antag-2 – antagonists of human orexin 1 receptor (OX1R). AID 485270. O43613. inhibition, % at 6.6 µM. actives 1.8% (n = 330,000). OX1R-expressing cells, FRET antagonist read-out; in the data active means inhibition mostly above about 38%, no sharp cut-off; inactive means mostly below about 40%;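 further: 0% = agonist challenge alone and 100% = reference antagonist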
* hit, by the source's call. Some of the compounds tested; most or all hits stand in other tables.

# | molecule | OX1R antag-1 | OX1R antag-2
1 | Cc1c(C)c2cc(Cl)c(OCC(=O)N3C[C@H]4C[C@@H](C3)c3cccc(=O)n3C4)cc2oc1=O | -20 | 10
2 | N#Cc1c(Cl)nc(Cl)c2c1CCN(Cc1ccccc1)C2 | 6 | 33
3 | O=c1[nH]c(=O)n(C2CCCCCC2)c(O)c1C=NCc1cccnc1 | -19 | 6
4 | O=c1[nH]c(=S)n(Cc2ccc(F)cc2)c(O)c1C=NCCCn1ccnc1 | 1 | 6
5 | Cc1ccc2c(c1)cc1c(=O)n(CC(=O)N3CCC4(CC3)OCCO4)nc(C)n12 | -1 | 35
6 | Cc1ccc2c(c1)=C/C(=C\c1c(O)[nH]c(=O)[nH]c1=O)C(=O)N=2 | -3 | 20
7 | CN1c2ccc([N+](=O)[O-])cc2CC2(C(=O)NC(=O)NC2=O)C1c1ccccc1 (centres undefined) | -14 | 8
8 | COc1ccccc1N1CCN(Cc2ccc(SC)cc2)CC1 | -25 | 9

Part of the list above, reformatted:
5: Cc1ccc2c(c1)cc1c(=O)n(CC(=O)N3CCC4(CC3)OCCO4)nc(C)n12
6: Cc1ccc2c(c1)=C/C(=C\c1c(O)[nH]c(=O)[nH]c1=O)C(=O)N=2
7: CN1c2ccc([N+](=O)[O-])cc2CC2(C(=O)NC(=O)NC2=O)C1c1ccccc1 (centres undefined)
Compound	5	6	7
OX1R antag-1	-1	-3	-14
OX1R antag-2	35	20	8

Quoted from the listing.
In OX1R antag-1, `N#Cc1c(Cl)nc(Cl)c2c1CCN(Cc1ccccc1)C2` is listed with 6
In OX1R antag-2, `O=c1[nH]c(=S)n(Cc2ccc(F)cc2)c(O)c1C=NCCCn1ccnc1` is listed with 6
